# FGF22 binding: binders of human FGF22 protein, primary screen, FGF22 synaptogenesis inhibitor project, biophysical, thermal shift, single point. actives 1.5% (n = 340,000). Fibroblast growth factor 22 (Homo sapiens), Q9HCT0. calls only at 9.99 µM. recombinant FGF22 thermal shift, SYPRO orange fluorescence; percent of sucrose octasulfate shift, DMSO zero. AID 651658, 2012;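 active means melting point raised past a set limit in the mean and every replicate; inconclusive means no clear call; three in four hits are not shown here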
# Target sequence (Q9HCT0 whole entry, looked up): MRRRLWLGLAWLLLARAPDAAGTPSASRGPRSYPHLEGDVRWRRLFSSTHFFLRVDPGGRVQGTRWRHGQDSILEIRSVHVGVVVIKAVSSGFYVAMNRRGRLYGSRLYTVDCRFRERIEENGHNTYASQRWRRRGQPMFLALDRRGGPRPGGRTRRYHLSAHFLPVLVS
# Ecoli rRNA inh: reduced GFP signal of wild-type E. coli, primary screen, bacterial rRNA inhibitor project, GFP/RFP fluorescence, OD600, single point; GFP signal change (wild-type ribosome), % (concentration not given with the values); actives 1.6% (n = 350,000); E. coli WT GFP vs humanized-ribosome RFP mutants, 24 h; stronger effect = lower value; DMSO median 0, no signal -100; AID 720706, 2013;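 active means significant combined selectivity score with lowered wild-type GFP, culture density cut under 30%, mutant RFP and density less affected; inactive means any of these conditions unmet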; further: one replicate is shown; some compounds called inactive have numbers as strong as hits
# ALR inh: inhibitors of human ALR sulfhydryl oxidase, primary screen, biochemical, H2O2 detection, HRP-luminol luminescence, single point | FAD-linked sulfhydryl oxidase ALR (Homo sapiens), P55789 | purified ALR, DTT oxidation | inhibition, % (test concentration not listed) | actives 3.8% (n = 290,000);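 active means mean and each replicate at 75% or more; inconclusive means only one of the two met; inactive means neither met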;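 further: stock transfer was 7.5 nL into about 7.5 µL; 0% = neutral wells and 100% = wells with inactivated enzyme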
# Target sequence (P55789 whole entry, looked up): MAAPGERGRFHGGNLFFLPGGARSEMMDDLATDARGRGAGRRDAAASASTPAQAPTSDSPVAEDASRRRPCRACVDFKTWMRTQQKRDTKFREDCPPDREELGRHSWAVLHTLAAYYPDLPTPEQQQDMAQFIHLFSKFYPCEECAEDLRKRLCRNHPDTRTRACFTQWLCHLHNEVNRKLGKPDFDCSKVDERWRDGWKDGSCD
# Vif TR-FRET: inhibitors of Vif binding to APOBEC3G peptide, primary screen, biochemical, TR-FRET, GST-Vif 1-94, biotin-A3G peptide, dose response retest (AID 1117319); TR-FRET GST-Vif / biotin-A3G peptide binding; higher % means a stronger effect; test concentration not given here; strong numbers were not always called active; inhibition, %, or IC50 in µM where a hit was titrated; actives 0.57% (n = 260,000);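 active means above the screen mean plus three standard deviations and confirmed in dose response; inconclusive means results disagree or hit not tested in dose response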;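 further: Vif residues 1-94 fused to GST binding biotinylated APOBEC3G peptide 110-148; 0% = full assay without inhibitor and 100% = GST in place of GST-Vif; retest series ran down from 100 µM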
# E coli growth: E. coli growth inhibition, primary screen, OD600 | Escherichia coli growth, 23 h; stronger effect = lower value | OD600 absorbance (concentration not given with the values) | actives 0.21% (n = 330,000) | AID 1053175, 2014;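 active means OD600 absorbance below the run mean of sample wells minus 3.6 SD, in any replicate, cut at about 0.56 in these data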;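 further: stock transfer was 300 nL into about 60 µL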
# MLL AF4-AF9 inh: inhibitors of AF4 peptide binding to AF9, primary screen, biochemical, AlphaScreen, biotin-AF4 peptide, FLAG-AF9, single point | Protein AF-9 (Homo sapiens), P42568 | inhibition, % at 10 µM | actives 0.47% (n = 350,000);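 active means every replicate reaching a set inhibition limit, whatever the replicate mean, cut at about 25% in these data; inconclusive means mean inhibition reaches that limit but some replicates miss it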;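 further: 0% = plate neutral control median and 100% = total signal loss; the record names both 10 and 1 µM as test concentration; the first replicate is given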
# HNF4A DNA FP: change in binding of human HNF4A to DNA, primary screen, biochemical, fluorescence polarization, FITC-DNA; Hepatocyte nuclear factor 4-alpha (Homo sapiens), P41235; 1 h; activity change, % at 10 µM; AID 1224865, 2016; actives 0.3% (n = 360,000); in the data active means activity change above about 30%, passing the limit was not always enough;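 further: controls were the assay level and a saturating level of protein; the project sought stronger binding though the title names inhibitors; some compounds called inactive have numbers as strong as hits; positive values seem to mean higher polarization but the record does not say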
# Target sequence (P41235 whole entry, looked up): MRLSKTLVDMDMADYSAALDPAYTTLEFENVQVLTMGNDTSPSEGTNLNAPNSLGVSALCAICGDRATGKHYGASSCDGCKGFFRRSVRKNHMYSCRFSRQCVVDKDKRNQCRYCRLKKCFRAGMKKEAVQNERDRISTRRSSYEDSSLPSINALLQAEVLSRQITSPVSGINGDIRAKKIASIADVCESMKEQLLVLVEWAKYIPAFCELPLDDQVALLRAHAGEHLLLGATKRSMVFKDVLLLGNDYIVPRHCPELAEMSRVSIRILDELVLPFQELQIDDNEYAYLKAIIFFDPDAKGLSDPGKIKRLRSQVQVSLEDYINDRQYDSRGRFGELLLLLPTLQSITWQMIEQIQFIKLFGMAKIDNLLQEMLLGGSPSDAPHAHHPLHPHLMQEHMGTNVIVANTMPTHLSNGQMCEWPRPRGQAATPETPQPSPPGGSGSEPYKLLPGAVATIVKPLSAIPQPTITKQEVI
# Ecoli rRNA inh OD600: second read-out of Ecoli rRNA inh, no call of its own (marks repeat the call); OD600 change, %; measured here: OD600 growth;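 optical density of the mix in the first replicate; 0 = DMSO median and -100 = no signal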
# Ecoli rRNA inh RFP: further read-out of Ecoli rRNA inh, marked with its call; RFP signal change, %; measured here: RFP humanized mutant strains;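 first replicate; 0 = DMSO median and -100 = no signal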
# An asterisk follows results filed as active; i = inactive; ? = inconclusive; nt = no result given.
SMILES,FGF22 binding,Ecoli rRNA inh,Ecoli rRNA inh OD600,Ecoli rRNA inh RFP,ALR inh,Vif TR-FRET,E coli growth,MLL AF4-AF9 inh,HNF4A DNA FP
COc1c(Cl)cc(Cl)cc1C(=O)Nc1ccccc1N1CCN(C(C)=O)CC1,nt,nt,nt,nt,-16,-9%,0.8,nt,-0.3
Cc1ccc(Nc2nnc(SCC(=O)Nc3ncc(C(F)(F)F)cc3Cl)s2)cc1,nt,nt,nt,nt,nt,12%,0.72,nt,-0.5
COc1ccc(NC(=O)C(CC(=O)O)Cc2ccc(Br)cc2)cc1 (configuration not stated),i,-7,10,-5.6,9,-10%,nt,0.5,-0.2
COc1ccc(CNC(=O)CN(C(=O)c2csnn2)c2ccc(F)cc2)cc1,i,1,4,-0.4,-21,nt,0.65,-2.4,0.9
Cc1cc(-c2nnc(SCC(=O)Nc3ccccc3C(F)(F)F)n2N)n[nH]1,i,3,17,-0.1,0,nt,0.63,-7.4,5.0
Brc1cnc2ccccc2c1N1CCCCC1,i,15,-2,1.0,0,nt,0.64,nt,-4.5
Cc1nonc1NC(=O)c1oc2ccc(F)cc2c1C,i,9,13,-1.4,-6,1%,0.74,-0.7,2.4
C[C@H]1CN([C@@H](C)CO)C(=O)c2cc(C#Cc3cccnc3)cnc2O[C@H]1CN(C)C(=O)CC1CC1,i,0,9,1.3,nt,nt,nt,-5.8,nt
Cc1ccc(C(=O)n2nc(C#N)c(C#N)c2N)cc1,i,10,-4,0.9,6,1%,0.67,nt,-2.5
COc1ccc2c(c1)cc(C(=O)N/N=C/c1c(O)c(C(=O)O)cc3ccccc13)n2C,i,-1,1,1.1,-2,-9%,nt,8.0,27
COC(=O)C[C@H]1C[C@H]2c3cc(NC(=O)Nc4ccc(C(F)(F)F)cc4)ccc3O[C@H]2[C@H](CO)O1,i,-11,-20,18,nt,nt,nt,3.4,nt
CC(OC(=O)c1cc(S(=O)(=O)N2CCOCC2)ccc1F)C(=O)NC1CCCCC1C (configuration not stated),i,6,3,2.6,-1,nt,0.7,-0.6,-4.1
O=C(OCCNc1ncc(C(F)(F)F)cc1Cl)c1ccc(S(=O)(=O)N2CCOCC2)cc1,nt,nt,nt,nt,-1,0%,0.68,nt,-0.1
C/C(O)=C(/C=Nc1ccccc1)C(=O)Nc1ccccc1,i,-12,-8,-5.2,-14,nt,0.7,1.1,1.9
O=c1c2ccccc2nc2c3ccccc3cnn12,i,13,16,-0.7,0,2%,0.64,0.1,-0.6
Cc1ccc(C2(C)NC(=O)N(CC(=O)Nc3cc(S(=O)(=O)N4CCCCC4)ccc3OC(C)C)C2=O)cc1 (configuration not stated),nt,-3,-2,5.0,-7,-2%,0.65,-0.5,2.0
CC(C)NC(=O)N(C)C[C@H]1OCCCC[C@H](C)Oc2ccc(NC(=O)Nc3cccc4ccccc34)cc2C(=O)N([C@@H](C)CO)C[C@H]1C,i,0,-1,-1.1,nt,nt,nt,-11,nt
Cc1ccccc1CCN(C(=O)CN1C(=O)c2ccccc2S1(=O)=O)C(C(=O)NCC1CCCO1)c1ccncc1 (configuration not stated),nt,nt,nt,nt,0,nt,0.69,nt,-3.3
CCc1ccc(C(C(=O)NCc2ccccc2)N(C(=O)c2csnn2)C2CC2)cc1 (configuration not stated),i,4,-25,1.3,-7,-5%,0.65,-0.2,-1.6
COc1ccc(CNC(=O)C(C)Sc2nc3ccccc3c(=O)n2CCCN2CCOCC2)cc1 (configuration not stated),i,3,-9,1.3,nt,-4%,0.68,2.7,6.1
Cc1nnc(-c2cccc(Br)c2)c2cn(-c3cccc(Br)c3)nc12,nt,nt,nt,nt,-13,-33%,nt,nt,125
O=S(=O)(c1ccc(Cl)c(Cl)c1)c1snnc1-c1ccccc1,nt,nt,nt,nt,nt,20%,0.67,nt,0.2
Cc1ccc2c(CC(=O)NCC3(N4CCOCC4)CCCCC3)coc2c1C,i,1,-12,3.1,-21,nt,0.68,4.4,2.8
O=S(=O)(N1CCOCC1)N1CCN(c2ccccc2F)CC1,nt,nt,nt,nt,-15,-9%,0.69,nt,1.5
O=C(CS(=O)(=O)c1ccccc1)N(CCCN1CCOCC1)c1nc2c(F)cccc2s1,i,6,3,-0.5,-2,nt,nt,1.0,4.9
Cn1c(=O)c2c(nc(CN3CCN(c4ccccc4)CC3)n2CCc2ccccc2)n(C)c1=O,nt,nt,nt,nt,73,nt,0.75,nt,0.7
COc1ccc(N/C(C)=C2/C(=O)C(=O)N(CCO)C2c2ccc([N+](=O)[O-])cc2)cc1 (configuration not stated),nt,nt,nt,nt,-2,5%,nt,nt,1.7
Cc1ccc(C(C)C)cc1OCC(=O)N/N=C/c1ccc2c(c1)OCCO2,i,-28,-30,9.6,-3,nt,nt,8.5,-2.4
Cc1ccccc1Cn1c(=N)n(CC(=O)c2ccc([N+](=O)[O-])cc2)c2ccccc21,i,nt,nt,nt,nt,-10%,0.65,3.2,43*
NC(=O)CCC(NS(=O)(=O)c1ccc(Cl)cc1)C(=O)NCC1CCCCC1 (configuration not stated),i,-2,0,-0.3,-8,nt,0.67,-2.4,18
CC(=O)Nc1ccccc1OCCCN1CCC(C(O)(c2ccccc2)c2ccccc2)CC1,i,0,6,5.8,nt,nt,nt,5.4,1.0
CCS(=O)(=O)Nc1ccc2c(c1)C(=O)N(C)C[C@@H](OC)[C@H](C)CN(Cc1nccs1)[C@@H](C)CO2,i,0,-2,-0.4,nt,nt,nt,-0.5,nt
Cc1ccc(NC(=S)N(Cc2cccs2)Cc2cc3cc(C)cc(C)c3[nH]c2=O)cc1,i,20,4,-0.8,10,nt,0.73,-11,0.3
COc1ccc(S(=O)(=O)N(C)C[C@H]2Oc3ccc(NC(=O)Nc4ccccc4)cc3CC(=O)N([C@H](C)CO)C[C@@H]2C)cc1,i,-2,-9,0.6,nt,nt,nt,2.7,nt
O=C1OCCN1CCNCc1cn(-c2ccc(F)cc2)nc1-c1ccccc1Cl,nt,-6,1,-1.9,-7,2%,0.71,0.6,-3.0
O=C(C[C@@H]1C[C@H]2c3cc(NS(=O)(=O)c4ccc(F)cc4)ccc3O[C@H]2[C@@H](CO)O1)NCCc1ccccc1,i,0,-28,-3.9,nt,nt,nt,0.8,nt
COc1ccc(NC(=O)N(C)C[C@H]2OCCCC[C@@H](C)Oc3ccc(NC(=O)CCC(F)(F)F)cc3C(=O)N([C@H](C)CO)C[C@H]2C)cc1,i,0,-7,-2.2,nt,nt,nt,-1.5,nt
O=S(=O)(/C=C/c1ccccc1)N1CCN(c2nc(-c3ccccc3)nc3ccccc23)CC1,i,7,8,-3.3,nt,-4%,0.71,-23,3.1
Cc1cc(C)c(OCCNCc2ccccc2)c(C)c1,i,-12,-2,-1.7,4,nt,0.63,-2.7,5.1
C/C(=N\O)c1cc(Cl)cc(Cl)c1O,i,nt,nt,nt,11,nt,nt,1.2,-4.8
COc1ccc(N(CC(=O)NCc2ccc3c(c2)OCO3)S(=O)(=O)c2ccccc2[N+](=O)[O-])c(OC)c1,i,-7,-6,1.8,-19,-2%,0.71,0.1,-4.0
COc1ccc(CN2CCN(C(=O)CC(C)C)CC2)cc1,i,13,8,0.7,nt,nt,0.69,2.3,-0.5
COc1cccc(-n2nc(-c3ccnn3-c3ccccc3)c(=O)n(C)c2=O)c1,nt,nt,nt,nt,7,7%,0.75,nt,-1.9
COc1ccc(CCNC(=O)COC(=O)C2CCCCC2)cc1,nt,nt,nt,nt,10,-5%,0.69,nt,0.8
C[C@H]1CN([C@@H](C)CO)C(=O)Cc2cc(NS(=O)(=O)c3ccc(Cl)cc3)ccc2O[C@@H]1CN(C)C(=O)NC1CCCCC1,i,-2,2,-0.2,nt,nt,nt,-1.8,nt
CCn1c(SCC(=O)N2CCN(C)CC2)nc2c1c(=O)n(C)c(=O)n2C,i,5,0,-0.3,3,nt,0.71,0.4,-1.0
COc1ccc(-c2nn(-c3ccccc3)cc2/C=C2/SC(=S)N(Cc3ccco3)C2=O)c(C)c1,nt,nt,nt,nt,-10,-5%,0.75,nt,4.8
O=C(NCc1cccs1)C1CCCN1C(=O)Nc1cccc(F)c1 (configuration not stated),nt,2,4,-6.1,-11,4%,0.72,0.5,-2.9
Cc1scc(C(=O)N2CCN(c3ccc(Cl)cc3)CC2)c1C,i,nt,nt,nt,22,-13%,0.66,1.9,0.3
Cc1oc(-c2cccc(Cl)c2)nc1CN1CCCC(C(=O)NCc2ccco2)C1 (configuration not stated),nt,nt,nt,nt,-4,32%,0.67,nt,-1.0
CCOc1ccc(NC(=O)CCc2nnc3ccc(N4CCN(C)CC4)nn23)cc1,i,-3,3,-0.7,-5,12%,0.65,-4.2,-4.3
CN(C)Cc1cc(C(C)(C)C)cc(C(C)(C)C)c1O,i,5,9,-2.2,-5,-10%,0.66,3.0,2.1
CCNC(=O)[C@@H]1[C@@H](CO)[C@@H]2Cn3c(ccc(/C=C/c4ccccc4)c3=O)[C@H]1N2,i,3,6,-4.0,nt,nt,nt,-1.5,nt
O=C1CCC(C(=O)NCc2cccnc2)N1 (configuration not stated),nt,nt,nt,nt,-2,29%,0.68,nt,1.4
N#C[C@H]1[C@@H](c2ccc(-c3cccc(F)c3)cc2)[C@@H](CO)N1C(=O)NC1CCCC1,i,-28,-61,-3.2,nt,nt,nt,-1.2,nt
Cc1cc(C)c(NC(=O)CNC(=O)Cc2ccc(S(=O)(=O)N3CCOCC3)s2)c(C)c1,i,10,9,-0.3,-3,-1%,0.69,-4.7,1.6
CC(C)C(=O)Nc1ccc(-c2nc3ccccc3c(=O)o2)cc1,i,-10,-6,-3.6,nt,0%,0.7,-1.8,-3.9
CC(C)C#Cc1ccc2c(c1)O[C@@H](CN(C)C(=O)c1ccncc1)[C@@H](C)CN([C@H](C)CO)S2(=O)=O,i,-3,0,-5.8,nt,nt,nt,2.3,nt
COc1cccc(-n2nnc3c(=O)n(CC(=O)N4CCCCC4)cnc32)c1,nt,nt,nt,nt,-1,-1%,0.68,nt,8.3
Cc1ccc(Cl)cc1NC(=O)C1CCN(S(C)(=O)=O)CC1,i,7,0,3.6,-3,3%,0.66,-3.0,-0.1
# Further records
SMILES,FGF22 binding,Ecoli rRNA inh,Ecoli rRNA inh OD600,Ecoli rRNA inh RFP,ALR inh,Vif TR-FRET,E coli growth,MLL AF4-AF9 inh,HNF4A DNA FP
Cc1ccc(S(=O)(=O)NCc2ccccn2)c(C)c1C,i,9,6,-3.5,-7,?,0.67,0.7,-1.7
CC(C)N1CCN(Cc2cn[nH]c2C2CCCCC2)CC1CCO (configuration not stated),i,4,-1,-5.4,1,8%,0.7,-2.3,2.2
C[C@H]1CN([C@@H](C)CO)S(=O)(=O)c2ccc(Br)cc2O[C@@H]1CN(C)C(=O)c1cnccn1,i,2,19,1.4,nt,nt,nt,-0.2,nt
COc1ccc2c(c1)C(=O)N(c1ccc(C)cc1C)C(=O)C2(C)C,i,-4,-18,-3.0,-1,-5%,0.69,-1.3,-2.0

# Screening results deposited in PubChem by several laboratories.

# These rows are one share of the data; rates above refer to the full screens.
